Compound activity as filed in PubChem BioAssay.
VACV mCherry inh = vaccinia inhibition (mCherry reporter); Vaccinia virus mCherry reporter infection, fluorescence; about a quarter of the inactives have no number; Potency, µM (series often up to 36.5 µM), inactives show at the top dose activity change, negative = inhibition, most hits filed as inhibitors; 0.63% of 310,000 active; AID 720579; active = well fitted inhibition curve with a large enough effect; inconclusive = small, poorly fitted or top-dose-only effect; inactive = no such curve, though single readings can be large or run the other way; tested in A549 cells; note: nearly all actives have a fitted effect of over 35% in size; inactives centre near -10
Vaccinia Venus = vaccinia inhibition (Venus reporter); Potency, µM (top dose mostly 36.5 µM), inactives show at the top dose activity change, negative = inhibition, most hits filed as inhibitors; 0.46% of 330,000 active; Vaccinia virus Venus reporter expression, fluorescence; AID 720580; active means well fitted inhibition curve with a large enough effect; inconclusive means small, poorly fitted or top-dose-only effect; inactive means no such curve, though single readings can be large or run the other way; tested in A549 cells; note: nearly all actives have a fitted effect of over 30% in size; inactives centre near -10
Starred values were filed as active, the others as inactive; i = inactive; u = inconclusive; x = not tested or not shown; & = joins results of further samples; [ ] = another dose, or the depositor's remark. % is set by controls: 0 for no effect and ±100 for the full control effect; potency is the fitted concentration of half-maximal effect.

Results follow in this order: VACV mCherry inh, Vaccinia Venus
- O=C(NCC1CCN(Cc2cccc(Cl)c2)CC1)Nc1ccccc1Cl
    -1%, -12%
- Cc1cc(NC(=O)CCC(=O)N(CC(=O)NC2CCCC2)Cc2ccco2)no1
    -12%, -3%
- COCc1c(C(=O)N/N=C/c2ccc(C)o2)nnn1-c1nonc1N
    -23%, -7%
- Cc1ccc(CN(Cc2ccccc2)C(=S)Nc2ccccc2C)o1
    -13%, -1%
- O=C(Nc1cccc(F)c1)C1CCCN1S(=O)(=O)c1cccc2cccnc12 (stereo not given)
    22%, -9%
- CCc1ccc(C(=O)Nc2ccc(S(=O)(=O)Nc3nc(C)cc(C)n3)cc2)o1
    x, -10%
- COc1cc(C(=O)Nc2ccc(N(C)C)cc2)cc(OC)c1OC
    -1%, -12%
- CC1(C)S[C@@H]2[C@H](NC(=O)COc3ccccc3)C(=O)N2C1C(=O)OCC1CCCCC1 (stereo not given in full)
    i, -6%&-6%
- O=C(COC(=O)C1CCC1)NCCc1ccc(Cl)cc1Cl
    -3%, -11%
- CN(Cc1ccccc1)C(=O)c1ccc(NC(=O)Cc2ccc(NC(=O)C3CCN(C(=O)C4CCCCC4)CC3)cc2)cc1
    -11%, -28%
- COCC(C)n1c(C)cc(C(=O)CSc2cc(C)c3ccccc3n2)c1C (stereo not given)
    -23%, -20%
- Cc1ccc(C)c(CN2C(=O)c3ccccc3S(=O)(=O)c3ccc(C(=O)N4CCN(Cc5ccccc5)CC4)cc32)c1
    -16%, -10%
- Cn1nc(C(C)(C)C)cc1C(=O)Sc1cccc(Br)c1
    i[7.34 µM], -6%[7.34 µM]
- O=C(Cc1ccc(Br)cc1)OCC(=O)c1ccc2c(c1)OCCO2
    -7%, -2%
- Cc1oc(-c2ccccc2F)nc1CS(=O)CC(=O)NCc1ccc(F)cc1 (stereo not given)
    i, -13%
- COCCN(C(=O)COC(=O)CCC1CCCC1)c1c(N)n(Cc2ccccc2)c(=O)[nH]c1=O
    i, -27%
- Cc1noc(C)c1C(=O)NCc1ccccc1F
    i, -13%
- OCCn1cnc2c(SCc3ccccc3)ncnc21
    -14%, -7%
- CCOC(=O)C1=C(C)N(CC(C)C)C(=O)/C1=C\c1cccs1
    -17%[7.34 µM], -2%[7.34 µM]
- O=C(CCc1ccc(S(=O)(=O)NC2CCCCC2)cc1)NCc1ccc(Cl)cc1
    x, -24%
- Cc1cc(C)c2c(=O)n3c(nc2c1)C(CC(C)C)NC(=O)c1cc2ccccc2cc1-3 (stereo not given)
    10µM*, u
- CCN(CC)C(=O)c1ccc2c(c1)N(Cc1ccccc1)C(=O)CS2=O (stereo not given)
    -4%, -1%
- Cc1ccc(S(=O)(=O)N2CCN(CC(O)COc3ccccc3)CC2)cc1 (stereo not given)
    -6%, -15%
- CC(=O)NNc1cc(C)nc(NS(=O)(=O)c2ccc(C)cc2)n1
    i, -10%
- O=C(OCCCN=C1NS(=O)(=O)c2ccccc21)c1ccc(F)cc1
    i, -10%
- Cc1ncc([N+](=O)[O-])n1CC(=O)NCc1ccccc1
    -10%, -9%
- COc1ccc(OC)c(N2C(=O)C(Cl)=C(N3CCOCC3)C2=O)c1
    -16%, -9%
- CN(CC(=O)N1CCc2ccccc2C1)S(=O)(=O)c1ccc2c(c1)c(=O)n(C)c(=O)n2C
    -11%, -15%
- NC(=O)C1CCN(C(=O)CC2(CC(=O)O)CCCC2)CC1
    3%, -11%
- COC(=O)C1=C(CN2CCN(C)CC2)NC(=O)NC1c1cc(C)ccc1C (stereo not given)
    i, -20%
- COCCn1c(SCC(=O)NCc2cccs2)nnc1-c1ccc(OC)cc1
    21%, 24%
- CCn1nc(C)c2c(-c3ccccc3)cc(=O)n(C(C)C(=O)NCc3ccc(C)cc3)c21 (stereo not given)
    -3%, -1%
- CN(CC(=O)Nc1ccccc1Cl)C(=O)CSc1nc2ccccc2s1
    u, -21%
- CC1CCc2sc(C(=O)NN=C3CCCC3)cc2C1 (stereo not given)
    -9%, -10%
- CC(C)=CC(=O)OCc1cc([N+](=O)[O-])cc2c1OCOC2
    -7%, -5%
- C=CC[C@@H](CC(=O)N[C@H](CO)Cc1ccccc1)C(=O)N[C@H](C)COC(=O)[C@@H](CC=C)Cc1ccc(F)cc1
    u, -17%
- COC(=O)C1CCN(C(=O)NC2CC(=O)N(c3ccc4c(c3)OCCO4)C2)CC1 (stereo not given)
    -1%, -9%
- COc1ccc(Cc2noc(CN3CCN(Cc4cccc(Cl)c4)CC3)n2)cc1OC
    -8%, -15%
- CN(CC(=O)Nc1ccc(S(N)(=O)=O)cc1)C1CCCCC1
    -13%, 2%
- CCOc1ccc(NC(=O)CCSc2ccc(C)cc2)cc1
    -17%, -7%

Reformatted: results already given
NC(=O)C1CCN(C(=O)CC2(CC(=O)O)CCCC2)CC1
  VACV mCherry inh: 3%; Vaccinia Venus: -11%

COc1cc(C(=O)Nc2ccc(N(C)C)cc2)cc(OC)c1OC
  VACV mCherry inh: -1%; Vaccinia Venus: -12%

Cc1cc(C)c2c(=O)n3c(nc2c1)C(CC(C)C)NC(=O)c1cc2ccccc2cc1-3 (stereo not given)
  VACV mCherry inh: 10µM*; Vaccinia Venus: u

Cc1cc(NC(=O)CCC(=O)N(CC(=O)NC2CCCC2)Cc2ccco2)no1
  VACV mCherry inh: -12%; Vaccinia Venus: -3%

More entries.
Results follow in this order: VACV mCherry inh, Vaccinia Venus
- O=C1COc2ccc(C(=O)COC(=O)c3ccccc3F)cc2N1
    i, -9%
- CS(=O)(=O)c1ccc(Cl)c(NC(=O)c2cc(=O)[nH]c3ccc(S(=O)(=O)N4CCOCC4)cc23)c1
    -4%, -10%
- Cc1ccc(Nc2c(-c3ccc(C)o3)nc3cnccn23)cc1
    -21%&-1%, 0%&-14%
- O=C(CN1C(=O)NC2(CCCC2)C1=O)Nc1cc(Cl)ccc1N1CCOCC1
    i, -14%
- COCCn1c(SCC(=O)N2CCCC2)nc2c(c1=O)SCC2
    i, -15%
- Cc1cc2c(cc1S(=O)(=O)Nc1cccc(F)c1C)NC(=O)CO2
    -7%, -9%
- O=C(Nc1ccc(Cl)cc1Cl)NC1CCCC1
    i, -24%
- CCOC(=O)CN1C(=O)CSc2ccc(S(=O)(=O)N3CCCC3)cc21
    i, -7%
- CCOC(=O)c1sc(N2C(=O)c3oc4cc(C)c(C)cc4c(=O)c3C2c2cccc(O)c2)nc1C (stereo not given)
    10%, -4%
- N#Cc1nc(COc2ccccc2Cl)oc1N1CCCC1
    -4%, -16%
- CC(C)(C(N)=O)N1CCN(c2ncc(C(F)(F)F)cc2Cl)CC1
    -8%, u
- O=C1COc2ccc(C(=O)CCl)cc2N1
    -5%, -1%
- COc1ccc([N+](=O)[O-])cc1NC(=O)CCS(=O)(=O)c1ccc(Br)cc1
    -10%, 5%
- CC(N)Cc1cn(Cc2ccccc2)c2ccccc12 (stereo not given)
    u, u
- O=C(OCCOc1ccc(Br)cc1)c1ccc(Cl)c(S(=O)(=O)N2CCOCC2)c1
    -3%, 0%
- O=C(OCC(=O)N1CCN(C(=O)c2ccco2)CC1)c1ccccc1Cc1ccccc1
    -22%, -10%
- NNC(=O)c1cc2ccccc2cc1O
    -22%, -8%
- CCNc1nc2c(c(=O)n(C)c(=O)n2C)n1Cc1ccc(F)cc1
    -8%, -17%
- COc1ccc(Cl)cc1NC(=S)N(CCCN1CCOCC1)Cc1cn(C)c2ccccc12
    u, u
- CCOc1ccc(OCC(=O)Nc2ccc(N3CCCCC3)cc2)cc1
    i, -14%
- COc1ccc(N2CCN(C(=O)CSc3ncnc4c3cnn4-c3ccccc3C)CC2)cc1
    x, -15%
- Cc1ccc(-c2nnn(CC(=O)N(c3ccccc3F)C(C(=O)NC3CCCC3)c3ccncc3)n2)o1 (stereo not given)
    -10%, 13%
- C[C@H](CO)N1C[C@H](C)[C@@H](CN(C)S(=O)(=O)c2cccs2)Oc2c(NC(=O)Cc3ccccc3)cccc2C1=O
    i, -17%
- Cn1c(=O)c2c(nc(SCC(=O)Nc3ccc(F)cc3F)n2Cc2ccccc2)n(C)c1=O
    -21%, -28%
- O=C(Nc1nc2ccc(F)cc2s1)c1cccc(S(=O)(=O)N2CCc3ccccc32)c1
    i, -7%
- COc1ccc(C(C#N)CCC2OCCO2)cc1OC (stereo not given)
    -10%, -10%
- CC(=O)Nc1ccc(SCC(=O)NC(=O)c2ccccc2Br)cc1
    -15%, -14%
- NC(=S)N=Nc1c(O)n(Cc2ccccc2)c2ccccc12
    u, 0.32µM*
- O=C(CCCn1c(=O)c2sccc2n(CC(=O)NCC2CCCO2)c1=O)NCc1ccco1 (stereo not given)
    -5%, -15%
- CCCC1=Nc2cc(C(=O)N3CCC(C)CC3)ccc2Sc2ccc(C)cc21
    -8%, -19%
- Cc1ccc(-n2nnnc2Sc2nc([N+](=O)[O-])nn2C)cc1C
    -25%, -13%
- O=C(CCSCc1cnn(-c2ccccc2)c1-n1cccc1)NCc1ccccc1Cl
    -13%, -10%
- COCCn1c(Cc2ccccc2)nnc1SCC(=O)Nc1ccccc1
    -15%, -4%
- COC(=O)[C@H](C)NC(=O)Nc1cc(OC)ccc1OC
    -15%, -5%
- Cc1nc(NC(=O)/C=C/c2ccc(Cl)cc2Cl)sc1C(=O)N(C)C
    i, -6%
- N=c1c2c(-c3ccccc3)c(-c3ccccc3)n(Cc3ccccc3)c2ncn1CCCn1ccnc1
    x, 14µM*
- COc1ccc2c(c1)CCCO[C@]21O[C@H](CCO)C[C@H](O)[C@H]1O
    i, 0%
- COc1cccc(NC(=O)c2cc(S(=O)(=O)N3CCc4ccccc43)cn2C)c1
    -8%, -20%
- O=C(NCc1ccccc1Cl)c1ccc2nc(Cc3ccccc3)oc2c1
    -5%, 1%
- O=C1OC2(CCCC2)OC(=O)C1=Cc1c[nH]c2ccccc12
    -6%, -7%
- COc1ccc(C2C(C(=O)c3ccco3)=C(O)C(=O)N2CCN2CCOCC2)cc1 (stereo not given)
    -11%, -1%
- CCOC(=O)CC(NC(=O)Cn1nnc(-c2ccccc2Cl)n1)c1ccc(OC)cc1 (stereo not given)
    -10%, -20%&-9%
- CC12CCC(=O)C=C1CCC1C2C(O)CC2(C)C(O)CCC12 (stereo not given)
    -9%, -1%
- Cc1nn(-c2ccc(F)cc2)c2sc(C(=O)O)cc12
    i, -19%
- Cc1ccc(N=C2NC(=O)CC(C(=O)Nc3ccc4c(c3)OCO4)S2)cc1 (stereo not given)
    i, -12%
- CCCCN(C)C(=O)C1CCCN(c2ncnc3onc(-c4ccc(F)cc4)c23)C1 (stereo not given)
    -9%, -15%
- CCOC(=O)c1ccc(NC(=O)CSc2cc(-c3ccccc3)nc(C)n2)cc1
    -11%, -16%
- Cc1ccc(NC(=O)C2C3CCCC2C3c2ccccc2)c(C)c1 (stereo not given)
    -15%, -12%
- C[C@H]1COC(=O)[C@H](Cc2ccc(F)cc2)C/C=C\C[C@H](CC(=O)N(CCO)Cc2ccccc2)C(=O)N1
    -13%, -22%
- COc1cc(C2C3=C(CC(C)(C)CC3=O)NC3=C2C(=O)c2ccccc23)ccc1O (stereo not given)
    u, u

Carrying on:
Results follow in this order: VACV mCherry inh, Vaccinia Venus
- COc1ccc(OC)c(-c2csc(NC(=O)Cc3cc(OC)c(OC)c(OC)c3)n2)c1
    i, -19%
- CCN(CC(=O)Nc1ccc(NC(C)=O)cc1)C(=O)/C=C/c1cccs1
    i, -9%
- COc1ccc(NC(=O)CSCc2ccccc2C)cc1
    -15%, -10%
- COc1ccccc1C(=O)N[C@@H]1c2ccccc2C2(CCN(Cc3cccnc3)CC2)[C@H]1O
    -16%, -8%
- COCCCNC(=O)Cn1cc(/C=C2\C(=O)NC(=O)N(c3ccccc3F)C2=O)c2ccccc21
    -9%, -3%
- CCOc1ccccc1NC(=O)CSc1nnc(NC(=O)c2ccco2)s1
    -10%, -11%
- CCOc1ccc(CCNC(=O)C2=C(C)C(=O)OC23CCCCC3)cc1OCC
    i, 2%
- CC(Sc1nnc(NCc2ccccc2)s1)C(=O)Nc1ccc2c(c1)C(=O)c1ccccc1C2=O (stereo not given)
    -25%, -25%
- CC1(C)Oc2ccc(C(=O)NNC(=O)Nc3ccccc3)cc2NC1=O
    7%, -6%
- O=C(Nc1cccc(C(=O)N2CCCCC2)c1)C1CC1
    -2%, 1%
- CSc1nnc(C)c(/C=C/Nc2ccc(F)cc2F)n1
    -1%, 0%
- COc1ccc(NC(=O)Cn2c(=O)n(-c3ccc(C)cc3)c(=O)c3c2c2cc(C)ccc2n3C)cc1
    -4%, -2%
- CC(C)(C)c1[nH]nc2c1C(c1cccnc1)C(C#N)=C(N)O2 (stereo not given)
    i, -4%
- CCOc1ccc(C(=O)NC(=S)Nc2cccc(S(=O)(=O)NC3=NCCC3)c2)cc1
    -10%, u
- COc1ccccc1NS(=O)(=O)c1cc(N2Cc3ccccc3C2=N)ccc1N1CCOCC1
    -11%, -13%
- O=C(N/N=C/c1ccc(OC(=O)c2cccc(Br)c2)cc1)c1cccnc1
    -22%, -6%
- OC[C@@H]1CN(Cc2cccs2)C[C@H](n2cnc3c(NCc4ccco4)ncnc32)O1
    -10%, -3%
- CC(C)CSc1ccc(S(=O)(=O)NCC(=O)O)cc1[N+](=O)[O-]
    0%, 3%
- Cc1ccc(C(=O)NC(C)C2CC3CCC2C3)c(C)c1 (stereo not given)
    0%, -5%
- S=C1NC[C@H](CC2CCCCC2)N1CCc1cccc2ccccc12
    u, -15%
